BJeLR lethal: MLPCN primary cell-based screen for lethality selective to Ras in HRASV12 cells; BJeLR (HRASV12) viability, CellTiter-Glo ATP luminescence, 48 h; reference of the scale not given here; inhibition, % (concentration not given with the values); 300,000 compounds, 0.17% hits; AID 1554, 2009;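 active = replicate mean above 50%; inconclusive = above 50% but judged a plate artefact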;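 also: 50 nL library stock added to about 25 µL; numbers are from one replicate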
RN4220 kill: growth inhibition of S. aureus RN4220, primary screen, OD600; inhibition, % (concentration not given with the values); 16 h; 330,000 compounds, 0.33% hits;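 active = z-score of -3 or lower and OD600 up to 0.18 on both plates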;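 also: plate controls were untreated cells for no effect and reference antibiotic for full effect; stock transfer was 100 nL into about 80 µL; one replicate is shown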
ugtP null kill: growth inhibition of ugtP-null S. aureus, primary screen, RN4220 ugtP deletion, OD600; AID 1259309, 2017; 330,000 compounds, 0.54% hits; 16 h; some inactives read as strong as hits; growth inhibition, % (test concentration not listed);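 active = z-score under -3 and OD600 up to 0.15 on both plates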;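 also: plate controls were untreated wells for no effect and antibiotic for full effect; wells of about 80 µL received 100 nL stock; the first replicate is given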
Bead autofluor: counter-screen for toxin protease inhibitors: compound fluorescence | AID 624483 | fluorescence intensity (test concentration not listed) | compound autofluorescence counterscreen, microsphere flow cytometry; hits give high values | 360,000 compounds, 3.1% hits;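 active = at least 3 SD above the mean of all compounds, about 16000 in these data; inconclusive = too few beads counted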;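 also: 100 nL of 1 mM stock went into each well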
Mtb hypoxia rep: PubChem AID 1159583; M. tuberculosis hypoxia-regulated fluorescent reporter, fluorescence; fluorescence inhibition, % (test concentration not listed); 300,000 compounds, 0.1% hits;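 active = 35 to 45% if threefold the growth effect, above 45% if 1.5-fold the growth effect; inactive = the rest, general growth blockers included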;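 also: wells of about 50 µL received 100 nL stock; 0% = vehicle wells and 100% = reference inhibitor wells; whole bacteria with a GFP reporter of the hypoxia response; strong numbers were not always called active; many hits fall short of the cut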
PrP UTR inh: inhibition of PrP 5' UTR reporter expression | cell-based PrP 5' UTR mRNA reporter, plate reader | inhibition, % (test concentration not listed) | 340,000 compounds, 0.35% hits;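 active = every replicate at 50% or more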;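 also: 0 = median of the neutral control wells; tested in H4 reporter cells; numbers are from one replicate; inactives centre near -14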
Mtb hypoxia rep growth: further read-out of Mtb hypoxia rep, marked with its call; growth inhibition, %; measured here: M. tuberculosis growth (absorbance);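 0% = vehicle and 100% = reference antibiotic; read after six days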
Starred values were filed as active, the others as inactive; ? = inconclusive; . = no result given; & = joins results of further samples.

item	canonical_smiles	PrP UTR inh	RN4220 kill	Mtb hypoxia rep	BJeLR lethal
1	Cc1ccc(Cl)cc1N1CCN(C(=O)CCS(=O)(=O)c2ccc3c(c2)NC(=O)CO3)CC1	-29	2.6	2	4
2	Cc1nc(C(=O)N(C)C)nn1-c1ccc(Cl)cc1Cl	-45	4.2	15	-8
3	CCc1ccc(NC(=O)Cn2cccc2)cc1	-27	6.5	1	11
4	CCn1c(O)c(C=NCCN2CCOCC2)c(=O)[nH]c1=S	-30	4.0	1	-1
5	CC(C)(C)CC(=O)Nc1cc2c3c(c1)CCC(=O)N3CCC2	-15	-1.6	-1	3
6	O=C(COC(=O)Cc1ccccc1F)NCCNC(=O)COC(=O)Cc1ccccc1F	-26	4.0	8	9
7	Cc1nnc(SCC(=O)Nc2sccc2C#N)s1	-22	1.6	-6	1
8	Cc1cc(C)c(S(=O)(=O)NCCCn2ccnc2)cc1C	-14	1.8	7	4
9	CCOc1ccccc1N(CC(=O)NCC1CCCO1)C(=O)CCC(=O)Nc1cc(C)on1 (stereo not drawn)	-25	3.4	6	-1
10	Cc1sc2ncnc(SCC(=O)N3CCCC3=O)c2c1C	-15	5.4	13	2

item	Bead autofluor	ugtP null kill	Mtb hypoxia rep growth
1	5343	-1	0
2	.	3	3
3	2557	0	9
4	5865	5	-8
5	4615	4	-6
6	?	4	4
7	5712	0	-4
8	3609	6	13
9	3041	10	-5
10	8609	-6	13

Just BJeLR lethal and Mtb hypoxia rep growth, for some of the entries so far:
| no. | molecule | BJeLR lethal | Mtb hypoxia rep growth |
| --- | --- | --- | --- |
| 7 | Cc1nnc(SCC(=O)Nc2sccc2C#N)s1 | 1 | -4 |
| 8 | Cc1cc(C)c(S(=O)(=O)NCCCn2ccnc2)cc1C | 4 | 13 |

Next records
item	canonical_smiles	PrP UTR inh	RN4220 kill	Mtb hypoxia rep	BJeLR lethal
11	O=C(COc1ccc(Cl)cc1Cl)OCC(=O)c1ccc[nH]1	-7	1.2	7	.
12	Cc1ccc(C(=O)Nc2nnc(CC(=O)NN=Cc3ccncc3)s2)cc1	.	2.7	9	.
13	CCc1cc(=O)oc2cc(OCC(=O)N3C[C@H]4C[C@@H](C3)c3cccc(=O)n3C4)c(Cl)cc12	-12	3.2	.	-1
14	O=C(OC1CCOC1=O)c1cncc(Br)c1 (stereo not drawn)	-5	-2.2	.	4
15	Cc1cc(C(=O)NNc2c(Cl)cccc2Cl)n(C(C)(C)C)n1	-28	4.9	17	4
16	CNC(=S)NNC(=O)CSCc1c(Cl)cccc1Cl	1	0.3	4	-5
17	Cc1ccc(S(=O)(=O)N2CCOCC2)cc1NC(=O)COC(=O)CCC(=O)c1cccs1	-9	1.0	16	7
18	COc1ccc(C(=O)NNC(=O)Cc2ccc(Cl)cc2)cc1	-36	-0.6	6	4
19	Oc1c(Cl)cc(Cl)cc1/C=C/c1ccc2cccc(O)c2n1	-28	91*	-1	4
20	CCOc1ccc(OCCC(=O)N(CC(=O)Nc2ccccc2C(F)(F)F)Cc2ccco2)cc1	-16	3.2	9	10

item	Bead autofluor	ugtP null kill	Mtb hypoxia rep growth
11	6404	-2	0
12	.	-6	10
13	5224	11	.
14	3742	10	.
15	4813	12	7
16	4113	-1	8
17	3519	6	7
18	4312	8	1
19	2267	86	7
20	4906	2	1

Later entries
item	canonical_smiles	PrP UTR inh	RN4220 kill	Mtb hypoxia rep	BJeLR lethal
21	COc1ccccc1NC(=S)N(Cc1ccco1)Cc1cc2cc(C)cc(C)c2[nH]c1=O	-9	-4.9	-2	-12
22	COC(=O)C1(NC(=O)NC2CCCCC2)CCCCC1	-12	4.0	19	-2
23	CC(C)(C)OC(=O)CC1CC=CCC(CC(=O)NCCO)C(=O)NC(c2ccccc2)COC1=O (stereo not drawn)	.	-0.8&4.9	0&15	.
24	CC(=O)N1CCc2ccc(S(=O)(=O)N3CCN(C)CC3)cc21	-70	2.1	1	5
25	NC(=O)CSc1nc(C2CC2)nc2sc3c(c12)CCCC3	-71	4.1	17	3
26	CNC(=O)C1CC(=O)N(Cc2ccccc2)C(=Nc2ccc(OC)cc2)S1 (stereo not drawn)	-8	5.1	4	-11
27	Cc1cc(C)nc(OC(C(=O)O)C(OCCc2ccccc2)(c2ccccc2)c2ccccc2)n1 (stereo not drawn)	6	-0.3	5	5
28	N#CCSc1nnc(-c2cccnc2)n1-c1ccccc1	-23	0.1	-14	0
29	CCN(CC(=O)Nc1ccc2c(c1)OCCO2)C(=O)/C=C/c1ccccc1	-59	1.1	5	3
30	CC(=O)N1CCN(S(=O)(=O)c2cccc(C(=O)Nc3ccccc3N3CCOCC3)c2)CC1	-21	5.3	-9	0

item	Bead autofluor	ugtP null kill	Mtb hypoxia rep growth
21	6640	-13	-4
22	4381	13	3
23	.	0&0	12&8
24	2513	12	5
25	3318	9	11
26	23832*	2	10
27	3101	10	0
28	4462	0	-7
29	4408	7	-2
30	3235	12	-10

Next part
item	canonical_smiles	PrP UTR inh	RN4220 kill	Mtb hypoxia rep	BJeLR lethal
31	Cc1ccc(C)n1NC(=O)c1ccc(Cl)cc1Cl	-5	22	11	0
32	Cc1ccc2c(Cl)cc(Cl)c(OCC(=O)NC3CCS(=O)(=O)C3)c2n1 (stereo not drawn)	-22	1.0	2	2
33	Cc1cc(C)c(C#N)c(N2CCSCC2)n1	-5	5.9	.	-2
34	CC(=O)c1ccc(NC(=O)c2cc(S(=O)(=O)N3CCOCC3)ccc2C)cc1	-20	1.5	1	15
35	Cc1ccc(C)c(C(=O)CCC(=O)NCc2ccc(Cl)cc2)c1	2	-2.1	-8	9
36	COCCNC(=O)/C(C#N)=C\c1ccc(CNS(=O)(=O)c2ccccc2)o1	-13	4.5	9	6
37	COc1ccc(CCN2C(=O)c3[nH]nc(-c4ccccc4O)c3C2c2cccc(O)c2)cc1OC (stereo not drawn)	-7	-2.1	3	-10
38	O=S(=O)(c1ccc(Cl)s1)N1CCNCC1	-7	1.2	3	.
39	O=C(CCC(=O)N1CCOc2ccccc21)NCCCN1CCOCC1	1	3.4	1	2
40	CN(C)CCCNC(=S)N1CCN(c2nc(-c3ccccc3)cs2)CC1	-26	-10	4	6

item	Bead autofluor	ugtP null kill	Mtb hypoxia rep growth
31	2458	-2	6
32	3326	5	2
33	3661	9	.
34	5731	4	-4
35	4375	2	-5
36	3576	11	4
37	4239	-4	6
38	4507	3	-4
39	5746	1	-2
40	4294	13	-10

Remaining list, next part:
item	canonical_smiles	PrP UTR inh	RN4220 kill	Mtb hypoxia rep	BJeLR lethal
41	COc1ccc(C(=O)Nc2ccc(N3CCN(C(=O)c4ccccc4C)CC3)cc2)cc1	17	2.6	-2	-11
42	COC(=O)Cc1cc(=O)[nH]c(/N=C(\N)Nc2ccc(C)cc2)n1	-23	.	.	-5
43	O=C(NNc1ccccn1)C(c1ccccc1)c1ccccc1	-9	0.1	5	0
44	CCc1ccc(C(=O)COC(=O)CNC(=O)CNS(=O)(=O)c2ccccc2)cc1	-9	5.7	6	2
45	C=CCN1C(=O)NC(=O)C(Cc2ccc(OC)c(OC)c2)C1=O (stereo not drawn)	-8	6.7	5	-2
46	Cc1ccc(S(=O)(=O)N=C(c2ccccc2)N(C)S(=O)(=O)c2ccc(C)cc2)cc1	.	6.5	10	.
47	CCO/C(=C/c1sc2ccc(OC)cc2[n+]1CCCS(=O)(=O)[O-])CC	-36	1.5	13	4
48	Cc1nn(-c2ccc(F)cc2)c(Cl)c1C=NNC(=O)c1ccc(O)cc1	.	3.8	3	.
49	Cc1occc1C(=O)Nc1ccc2ccccc2c1	-115	-13	15	2
50	CCN(CC(=O)NCc1ccc(F)cc1)C(=O)/C=C/c1ccc(S(=O)(=O)N(CC)CC)cc1	-21	4.2	5	-4

item	Bead autofluor	ugtP null kill	Mtb hypoxia rep growth
41	4325	-4	-4
42	6802	.	.
43	2153	3	-5
44	6271	5	-15
45	9921	-2	8
46	.	1	0
47	6051	-1	14
48	.	11	3
49	3302	-14	6
50	4019	4	-2

Part of the list above, with two lines to a compound.
Screens in order – PrP UTR inh	RN4220 kill	Mtb hypoxia rep	BJeLR lethal	Bead autofluor	ugtP null kill	Mtb hypoxia rep growth
46. Cc1ccc(S(=O)(=O)N=C(c2ccccc2)N(C)S(=O)(=O)c2ccc(C)cc2)cc1
    .	6.5	10	.	.	1	0
47. CCO/C(=C/c1sc2ccc(OC)cc2[n+]1CCCS(=O)(=O)[O-])CC
    -36	1.5	13	4	6051	-1	14
48. Cc1nn(-c2ccc(F)cc2)c(Cl)c1C=NNC(=O)c1ccc(O)cc1
    .	3.8	3	.	.	11	3
49. Cc1occc1C(=O)Nc1ccc2ccccc2c1
    -115	-13	15	2	3302	-14	6

(more compounds)
item	canonical_smiles	PrP UTR inh	RN4220 kill	Mtb hypoxia rep	BJeLR lethal
51	O=C1CSC(c2ccc(Cl)c(Cl)c2)N1c1nccs1 (stereo not drawn)	-13	2.4	12	.
52	O=C(N/N=C/C=C/c1ccc([N+](=O)[O-])cc1)c1cccs1	-37	.	.	9
53	CN(C)/C=C1\SC(=S)N(N2C(=O)C3C4C=CC(C4)C3C2=O)C1=O (stereo not drawn)	-13	5.9	5	-7
54	C=CCNCCOCCOc1ccc(C)cc1Br	-9	.	.	9
55	O=S(=O)(c1cccc(F)c1)N1CCc2sccc2C1c1ccc(OC(F)(F)F)cc1 (stereo not drawn)	-9	-2.6	-7	6
56	Cc1ccc(Nc2nc(C(=O)NCCCN3CCOCC3)cs2)cc1	1	8.1	10	5
57	COC(=O)Cn1cnc2sc3c(c2c1=O)CCCC3	-39	6.1	4	-1
58	CCCOc1ccc(/C(O)=C2\C(=O)C(=O)N(c3ccccn3)C2c2ccccc2F)cc1C (stereo not drawn)	7	10	2	8
59	CC(=O)N1CCOc2ccc(S(=O)(=O)N3CCN(c4cc(C)ccc4C)CC3)cc21	-17	-0.5	2	7
60	Cc1nc(/C=C/c2ccccc2)[nH]c(=O)c1-c1ccccc1	-114	-2.5	0	0

item	Bead autofluor	ugtP null kill	Mtb hypoxia rep growth
51	6225	-4	2
52	2727	.	.
53	4726	7	-6
54	2433	.	.
55	6532	15	2
56	15160	12	7
57	4669	4	7
58	3832	19	-6
59	.	-7	-4
60	2569	9	-7

Additional entries.
item	canonical_smiles	PrP UTR inh	RN4220 kill	Mtb hypoxia rep	BJeLR lethal
61	CCOc1ccc(NC(=O)CC(=O)Nc2ccc(OCC)cc2)cc1	-18	-0.3	-10	8
62	CN1CCC(N(C)S(=O)(=O)c2ccc(Cl)cc2)CC1	0	1.5	4	-2
63	O=C(Nc1ccc(CN2CCOCC2)cc1)c1cc(Br)ccc1Cl	-6	0.6	1	3
64	O=C(CSc1n[nH]c(=O)[nH]c1=O)c1ccc([N+](=O)[O-])cc1	-30	6.3	13	6
65	CCSc1ccc(C(=O)Nc2cccc(C)n2)cc1[N+](=O)[O-]	-11	6.7	8	-6
66	COc1ccccc1NC(=O)CCN1C(=O)/C(=C/c2cc(OC)c(OC)c(OC)c2)SC1=S	-18	4.8	9	-7

item	Bead autofluor	ugtP null kill	Mtb hypoxia rep growth
61	4087	-4	4
62	4115	3	4
63	4161	4	13
64	3704	-1	0
65	2606	-3	0
66	3506	0	1

Screening data deposited in PubChem BioAssay by several laboratories.
